BCR signal inh – qHTS Assay to Find Inhibitors of Chronic Active B-Cell Receptor Signaling. ABC-DLBCL IkBa-CBG/CBR reporter, luminescence ratio, 4 h. Potency, µM (titrated, usually from 46.1 µM), without a hit: at the highest dose ratio change, negative = lower green/red ratio, most hits filed as inhibitors. 340,000 tested, 0.05% active. AID 493014, 2011; active = well fitted inhibition curve with a large enough effect in the signal ratio, with a control signal flat, not every such curve was filed as active; inconclusive = small, poorly fitted or top-dose-only effect, or effect the other way, or a change in a side signal; the % refers to the signal ratio;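 also: potency is read from the fitted curve at half-maximal effect; plate controls were basal doxycycline-induced cells for no effect and cells given 10 µM MG132 for full effect; MG132 reads +100%, hits lower the ratio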
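Compounds up to 46 uM were incubated four hours with TMD8 cells whose green CBG68 luciferase is fused to IkappaBalpha; red CBR luminescence normalised the signal, and concentration-effect curves were fitted to fusion, red and ratio data.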
B2AR arrestin – qHTS assay of beta-arrestin-biased ligands of beta2-adrenergic receptor. Beta-2 adrenergic receptor (Homo sapiens), P07550. beta-arrestin recruitment to beta2AR, cell-based reporter. Potency, µM (series often up to 46.1 µM), without a hit: at the top dose activation, usual class: activators. 330,000 tested, 0.02% active. AID 492947, 2010;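 also: potency is read from the fitted curve at half-maximal effect; 0% = DMSO controls and full agonism = EC100 isoproterenol or metaproterenol; nearly all actives have a fitted effect of over 65% in size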
KCNH2 3.1 inh – qHTS for Inhibitors of KCHN2 3.1: Mutant qHTS. U2OS KCNH2 3.1, thallium flux FluxOr; active compounds read low. activity change, % (tested at about 1.8 µM). 340,000 tested, 0.95% active. AID 720553, 2013;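 active = maximum activity change below -70%; inconclusive = maximum activity change from -70% to -50%; inactive = maximum activity change above -50%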;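 also: thallium influx rate constant from kinetic fluorescence after stimulation buffer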
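Thallium flux read-out: FluxOr dye with Red40 quencher in HBSS/HEPES, 45 min at RT. Rate constants from kinetic reads were normalized to positive and negative DMSO controls. Cells: U2OS virally expressing the 3.1 isoform.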
USP2a inh – qHTS Assay for Inhibitors of Ubiquitin-specific Protease USP2a Using CHOP2 as the Reporter; Ubiquitin carboxyl-terminal hydrolase 2 (Homo sapiens), O75604; USP2 core, Ub-CHOP2 coupled fluorogenic reporter, 485/531; Potency, µM (series often up to 38.3 µM), for inactives: top-dose activity change, negative = inhibition, actives largely listed as inhibitors; 330,000 tested, 0.01% active; AID 463254, 2010;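 also: potency is read from the fitted curve at half-maximal effect; plate controls were DMSO wells for no effect and full inhibition by NEM control for full effect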
Target sequence (O75604 whole entry, looked up): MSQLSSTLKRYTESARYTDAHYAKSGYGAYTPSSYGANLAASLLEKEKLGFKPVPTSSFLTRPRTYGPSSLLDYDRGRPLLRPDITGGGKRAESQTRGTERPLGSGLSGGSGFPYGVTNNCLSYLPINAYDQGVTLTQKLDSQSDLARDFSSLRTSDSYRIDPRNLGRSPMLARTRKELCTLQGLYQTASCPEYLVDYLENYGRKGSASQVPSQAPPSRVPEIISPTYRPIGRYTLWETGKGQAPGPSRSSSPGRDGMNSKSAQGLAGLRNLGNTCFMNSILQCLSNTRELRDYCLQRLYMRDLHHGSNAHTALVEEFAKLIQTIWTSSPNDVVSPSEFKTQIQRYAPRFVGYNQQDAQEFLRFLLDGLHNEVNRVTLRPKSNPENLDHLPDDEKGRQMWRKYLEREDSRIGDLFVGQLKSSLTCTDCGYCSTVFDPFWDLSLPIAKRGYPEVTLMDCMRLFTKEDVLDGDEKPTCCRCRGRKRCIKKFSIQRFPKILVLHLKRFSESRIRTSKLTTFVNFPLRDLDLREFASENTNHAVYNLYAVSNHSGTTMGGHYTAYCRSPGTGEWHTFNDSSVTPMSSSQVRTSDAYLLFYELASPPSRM
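Cell-free coupled assay: 10nM USP2 core preincubated 30min RT with compound in Tris-HCl pH 8.0/CaCl2/CHAPS buffer, then 25nM Ub-CHOP2 and 25nM reporter substrate; fluorescence (Ex 485/Em 531) read after 60min RT, normalized to NEM inhibition, concentration-response curves fitted.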
uPA generation – qHTS for Inhibitors of Cell Surface uPA Generation; AID 540303, 2011; 330,000 tested, 0.31% active; Potency, µM (series often up to 38.3 µM), for the others: at the highest dose activity change, negative = inhibition, most hits filed as inhibitors; cell surface uPA generation assay, qHTS; active = well fitted inhibition curve with a large enough effect; inconclusive = small, poorly fitted or top-dose-only effect; inactive = no such curve, though single readings can be large or run the other way; tested in mouse RAW 264.7 cells; also: potency is read from the fitted curve at half-maximal effect; nearly all actives have a fitted effect of over 55% in size
GALK inhibitor – qHTS Assay for Inhibitors of Human Galactokinase (GALK). P51570. Purified GALK, Kinase-Glo residual ATP luminescence. Potency, µM (series often up to 57.5 µM), for the others: at the top dose activity change, negative = inhibition, most hits filed as inhibitors. 270,000 tested, 0.007% active. AID 1868, 2009; also: potency is read from the fitted curve at half-maximal effect
Target sequence (P51570 whole entry, looked up): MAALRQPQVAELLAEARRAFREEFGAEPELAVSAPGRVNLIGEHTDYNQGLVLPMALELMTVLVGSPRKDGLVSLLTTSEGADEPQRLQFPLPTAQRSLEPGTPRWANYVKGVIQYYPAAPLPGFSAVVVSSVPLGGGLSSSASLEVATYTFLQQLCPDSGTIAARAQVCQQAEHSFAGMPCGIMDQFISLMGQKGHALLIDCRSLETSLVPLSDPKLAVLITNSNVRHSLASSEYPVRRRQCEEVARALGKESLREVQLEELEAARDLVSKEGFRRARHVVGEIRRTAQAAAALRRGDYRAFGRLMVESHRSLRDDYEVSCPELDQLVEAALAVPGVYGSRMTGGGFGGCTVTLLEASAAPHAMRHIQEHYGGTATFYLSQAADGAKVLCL
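5 nM enzyme, 35 uM ATP, 100 uM galactose, 20 mM HEPES pH8.0, 5 mM MgCl2; 1 h RT; residual ATP by Kinase-Glo Plus luminescence, qHTS format.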
Giardia kill – Small Molecules that selectively kill Giardia lamblia: qHTS; Giardia lamblia trophozoite viability; activity change, % at 7.66 µM, hits read low; 340,000 tested, 0.15% active; in the data active = activity change below about -80%; inconclusive = between about -30% and that limit;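 also: parasites exposed to compound for two days anaerobically before the ATP read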
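Viability, read as ATP luminescence: trophozoites at 100 cells/well, compound added, 48 hrs anaerobic at 37 deg C, then 15-30 min room-temperature development before reading.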
FBPA coupling cs – qHTS Assay for Inhibitors of Fructose-1,6-bisphosphate Aldolase from Giardia Lamblia: Coupling assay counterscreen. coupling enzyme system counterscreen, AmpLite Red fluorescence. activity change, negative = inhibition, % at 58.2 µM, hits read low. 290,000 tested, 0.67% active. AID 2472, 2010; in the data active = activity change below about -30%
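Fluorescence at 525 nm excitation and 598 nm emission measured inhibition of the coupled detection system without aldolase. Compounds (at 57.5 uM final) were preincubated 10 min at room temperature with coupling enzyme reagent before a 20 min substrate/AmpLite Red step.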
hERG WT inh – qHTS for Inhibitors of KCHN2 3.1: Wildtype qHTS; U2OS, BacMam KCNH2, thallium flux FluxOr; active compounds read low; activity change, % at 1.84 µM; Voltage-gated inwardly rectifying potassium channel KCNH2 (Homo sapiens), Q12809; 340,000 tested, 0.37% active;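 active = maximum activity change below -70%; inconclusive = maximum activity change between -70% and -50%; inactive = maximum activity change above -50%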
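U2OS cells transduced with wild-type KCNH2 virus are loaded with FluxOr dye for 45 min, and thallium flux is measured in kinetic reads before and after stimulation buffer. Rate constants are normalized to DMSO controls.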
Eya2 phos inh – qHTS Assay for Inhibitors of the Phosphatase Activity of Eya2. Protein phosphatase EYA2 (Homo sapiens), O00167. recombinant Eya2, OMFP fluorescence dephosphorylation (OMFP is methylfluorescein phosphate). Potency, µM (series often up to 76.9 µM), without a hit: at the highest dose activity, negative = inhibition, usual class: inhibitors. 330,000 tested, 0.006% active; also: potency is read from the fitted curve at half-maximal effect
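Eya2 protein (added as 0.2 uM solution) was preincubated with compound for 10 min at ambient temperature in 50 mM HEPES pH 7.5, 50 mM NaCl, 5 uM MgCl2, 0.05% BSA, 1 mM DTT. OMFP (added at 50 uM) then reacted 10 min; fluorescence read at 485/525 nm.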
An asterisk follows results filed as active; ? = inconclusive; / = not tested or not shown; [ ] = another dose, or the depositor's remark. Unless noted, calls follow the shape of the dose curve; as a rule, active = well fitted curve in the direction sought with a large enough effect; inconclusive = small, poorly fitted or top-dose-only effect, or another doubt; inactive = no such curve, though single readings can be large; an effect the other way counts as inactive or inconclusive. Unless noted, % is scaled to controls: 0 for no effect and ±100 for the full control effect.

structure	B2AR arrestin	Eya2 phos inh	KCNH2 3.1 inh	USP2a inh	BCR signal inh	uPA generation	GALK inhibitor	Giardia kill	FBPA coupling cs	hERG WT inh
Cc1cc(OC(=O)c2ccccc2C(F)(F)F)c([N+](=O)[O-])c(=O)[nH]1	3.3%	-1%	-31	1%	-16%	4%	/	-24	1	0
Cc1cc(C)c(NC(=O)C2C3/C=C\CCCCC32)c(C)c1 (stereo not given)	0.2%	0%	-1	0%	-1%	3%	-2%	16	0	0
CC(=O)Nc1ccc(S(=O)(=O)NCC(=O)OCC(=O)N2CCN(c3ccccc3)CC2)cc1	-0.6%	2%	23	-1%	2%	2%	2%	3	1	-4
N#Cc1ccc(NC(=O)CCc2ccc(S(=O)(=O)N3CCOCC3)cc2)cc1	0.1%	19%	5	-1%	6%	2%	1%	5	1	1
COc1ccc(C(NC(=O)c2ccc(F)cc2)c2ccccc2)cc1 (stereo not given)	0.0%	-2%	-14	2%	-1%	2%	0%	2	0	18
CCOc1ccc(CN2CCN(Cc3cccc4c3OCO4)CC2CCO)cc1 (stereo not given)	0.2%	-3%	-23	-4%	7%	-2%	3%	2	0	-1
CC(C)c1ccc(NC(=O)C(=O)C2C(=O)Nc3ccccc32)cc1 (stereo not given)	-0.7%	11%	-22	2%	?	-5%	-3%	-1	2	-15
CCC(C)NC(=O)c1ccc(CS(=O)(=O)c2ccc(OC)cc2)o1 (stereo not given)	-0.2%	3%	-8	4%	-10%	-5%	3%	-26	-1	-14

Exported as labelled records: entries from further up
> COc1ccc(C(NC(=O)c2ccc(F)cc2)c2ccccc2)cc1 (stereo not given)
- B2AR arrestin = 0.0%
- Eya2 phos inh = -2%
- KCNH2 3.1 inh = -14
- USP2a inh = 2%
- BCR signal inh = -1%
- uPA generation = 2%
- GALK inhibitor = 0%
- Giardia kill = 2
- FBPA coupling cs = 0
- hERG WT inh = 18

> CCOc1ccc(CN2CCN(Cc3cccc4c3OCO4)CC2CCO)cc1 (stereo not given)
- B2AR arrestin = 0.2%
- Eya2 phos inh = -3%
- KCNH2 3.1 inh = -23
- USP2a inh = -4%
- BCR signal inh = 7%
- uPA generation = -2%
- GALK inhibitor = 3%
- Giardia kill = 2
- FBPA coupling cs = 0
- hERG WT inh = -1

> CC(C)c1ccc(NC(=O)C(=O)C2C(=O)Nc3ccccc32)cc1 (stereo not given)
- B2AR arrestin = -0.7%
- Eya2 phos inh = 11%
- KCNH2 3.1 inh = -22
- USP2a inh = 2%
- BCR signal inh = ?
- uPA generation = -5%
- GALK inhibitor = -3%
- Giardia kill = -1
- FBPA coupling cs = 2
- hERG WT inh = -15

> CCC(C)NC(=O)c1ccc(CS(=O)(=O)c2ccc(OC)cc2)o1 (stereo not given)
- B2AR arrestin = -0.2%
- Eya2 phos inh = 3%
- KCNH2 3.1 inh = -8
- USP2a inh = 4%
- BCR signal inh = -10%
- uPA generation = -5%
- GALK inhibitor = 3%
- Giardia kill = -26
- FBPA coupling cs = -1
- hERG WT inh = -14

The results go on.
structure	B2AR arrestin	Eya2 phos inh	KCNH2 3.1 inh	USP2a inh	BCR signal inh	uPA generation	GALK inhibitor	Giardia kill	FBPA coupling cs	hERG WT inh
COc1ccccc1Nc1nc(NCCO)c2ccccc2n1	0.5%	-2%	/	?	4%	/	1%	/	2	/
NC(=O)c1sc2nc(N3CCCCC3)c3c(c2c1N)CCCC3	0.0%	-7%	8	-17%	-1%	1%	0%	27	-19	-7
COc1cc(-c2nc(-c3ccc(NC(=O)c4ccc5c(c4)OCO5)cc3)no2)cc(OC)c1OC	-0.2%	5%	-5	1%	?	0%	-2%	-2	1	-7
COc1ccc(CNC(=O)CCC(=O)Nc2ccc(Cl)cc2)cc1	-0.9%	14%	14	2%	1%	0%	9%	-6	3	-4
CCOC(=O)c1cnc(N)nc1C(F)(F)F	-0.5%	5%	5	2%	-6%	-14%	0%	-9	1	-3
S=C(NCCc1ccccc1)NC1CC2CCC(C1)N2Cc1ccccc1 (stereo not given)	-0.6%	-15%	6	0%	14%	-2%	2%	11	1	14
CC(C)(C)OC(=O)N1CCN(C(=O)c2[nH]cnc2C(=O)N[C@@H](Cc2ccccc2)C(=O)OCc2ccccc2)CC1	-0.7%	-23%	44	-8%	?	-7%	/	30[activator]	-1	-26
CC(C)(C)C(=O)NNC(=O)c1cc2sccc2s1	1.9%	-24%	-5	-1%	?	3%	/	21	1	11
O=C(NCc1cnc2ccccn12)C1CCC(=O)N(Cc2cccc(F)c2)C1 (stereo not given)	-0.1%	-6%	/	0%	0%	-1%	-2%	-4	/	0
CN(C)CCCOC(=O)c1ccc(Br)cc1	-0.4%	5%	-16	-1%	6%	-1%	2%	-13	4	9
C=CCNC(=O)C1CCN(c2nc(C)cc(-c3ccccc3)n2)CC1	-0.3%	11%	16	2%	-1%	9%	5%	7	2	-23
O=C(Nc1cccc2cccnc12)c1cc(F)c(F)cc1Cl	-0.1%	-11%	-1	1%	?	9%	5%	5	4	-9
Cc1nnc(SCC(=O)Nc2cc(C(C)(C)C)nn2-c2ccccc2)s1	-0.6%	-5%	24	-1%	?	1%	0%	-2	0	12
Nc1nnnn1CC(=O)N/N=C/C=C/c1ccccc1	-0.4%	-10%	-4	1%	?	-1%	1%	-12	1	-4
CC(NC(=O)COC(=O)C1=COCCO1)C12CC3CC(CC(C3)C1)C2 (stereo not given)	-0.1%	0%	4	-1%	-4%	-6%	13%	-2	-2	2
O=C(Nc1ccc2c(c1)OCO2)c1ccc(Cl)s1	0.0%	3%	1	-9%	?	/	-5%	-12	-10	-14
Cc1ccc(N2CC(C(=O)Nc3c4c(nn3C(C)(C)C)CS(=O)(=O)C4)CC2=O)cc1 (stereo not given)	0.2%	12%	-1	2%	4%	12%	-3%	7	/	-4
C[C@@H]1C=CC(=O)O[C@@H]1c1ccc(C(F)(F)F)cc1	-0.3%	-8%	/	1%	?	/	/	/	-2	/
CN(C)C(=S)Nc1cccc(-c2n[nH]c(=S)o2)c1	0.0%	6%	4	0%	3%	/	1%	-1	3	-5
COc1ccc(CC(=O)Nc2cccc(SC)c2)cc1OC	-0.1%	-5%	-6	5%	?	-1%	-3%	-1	0	-12
O=C(NC1CCCCC1)C(c1ccncc1)N(C(=O)Cc1cccs1)c1ccccc1 (stereo not given)	0.3%	-3%	-14	3%	1%	-4%	11%	-11	0	-5
COC(=O)CN1C(=O)[C@H]2[C@@H](/C=C/c3ccccc3)N3C(=O)CN(CCO)C(=O)[C@@]3(Cc3ccccc3)[C@H]2C1=O	-0.2%	10%	/	2%	5%	15%	/	18	-3	/
CCOC(=O)C1(CCOC)CCN(Cc2nc(-c3cccs3)oc2C)CC1	0.1%	-5%	4	0%	-6%	2%	3%	7	5	22
CC(C)(CO)NC(=O)CC1C(=O)NCCN1CC(c1ccccc1)c1ccccc1 (stereo not given)	0.2%	8%	-22	0%	2%	4%	1%	14	-3	-1
COc1cc(-c2nnc(-c3ccc(N4CCOCC4)cc3)o2)cc(OC)c1OC	-0.3%	0%	2	2%	-5%	/	-3%	-7	1	13
COc1ccc2c(c1O)Cc1ccccc1C2=O	-1.7%	10%	-17	1%	8%	-8%	0%	17	-3	-36
COc1ccccc1N1CCN(C(=O)c2cc(-c3ccc(Cl)cc3)on2)CC1	-0.5%	4%	-36	2%	-4%	/	-2%	-15	1	1
Cc1ccc(CN2CCc3c(OCC(=O)Nc4cc(C)ccc4C)cccc3C2=O)cc1	0.8%	-19%	/	0%	0%	/	-1%	/	-1	/
Cc1cc(C)nc(SCCn2c(N3CCC(C)CC3)nc3c2c(=O)n(C)c(=O)n3C)n1	-0.4%	6%	/	3%	-1%	/	2%	/	2	/
COC(=O)c1ccc(NC(=O)Cn2c([N+](=O)[O-])cnc2C)cc1	0.1%	-15%	7	0%	-4%	15%	3%	-25	4	1
CC(C)NC(=O)CSc1nnc(-c2ccc3ncccc3c2)n1C	0.1%	0%	16	1%	?	-2%	1%	-14	-3	-4
CCCCN(C)CCCNC(=O)C1CC(=O)N(Cc2ccc(OC)cc2)C1 (stereo not given)	/	/	-2	/	/	-3%	0%	-1	3	-1
CCOc1ccc(C(=O)Nc2ccc3c(c2)C(=O)NC3=O)cc1	-1.0%	12%	5	1%	?	-4%	/	10	2	14

Assay outcomes: PubChem BioAssay, National Center for Advancing Translational Sciences (NCATS)

The list is partial, so the mix of outcomes need not match the whole.
